GIV Gai3 FP – inhibitors of GIV peptide binding to Galpha-i3, primary screen, biochemical, fluorescence polarization, FITC-GIV GBA peptide, rat Galphai3; Guanine nucleotide-binding protein G(i) subunit alpha-3 (Rattus norvegicus), P08753; 90 min; stronger effect = lower value; scaled: aluminum fluoride 0%, vehicle 100%; percent of control (FP), % (concentration not given with the values); 210,000 tested, 0.42% active; AID 1224905, 2016;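 active = replicate mean at 85% of control or lower, very high polarization wells dropped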;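 note: wells of about 15 µL received 100 nL stock; the first replicate is given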
Target sequence (P08753 whole entry, looked up): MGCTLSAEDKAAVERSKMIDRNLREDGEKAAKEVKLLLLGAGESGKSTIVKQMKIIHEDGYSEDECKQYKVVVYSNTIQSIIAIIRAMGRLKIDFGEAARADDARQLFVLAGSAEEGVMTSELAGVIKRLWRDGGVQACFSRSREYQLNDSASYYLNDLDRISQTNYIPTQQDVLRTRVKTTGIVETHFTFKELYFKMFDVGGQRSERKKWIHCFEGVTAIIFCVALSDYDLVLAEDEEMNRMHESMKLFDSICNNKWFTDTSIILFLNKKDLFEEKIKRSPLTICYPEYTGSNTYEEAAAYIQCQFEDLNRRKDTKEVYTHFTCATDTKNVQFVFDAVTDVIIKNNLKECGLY
HCMV NEC inh – inhibitors of HCMV UL50-UL53 interaction, biochemical, HTRF; AID 1918969, 2023; HCMV UL50-UL53 nuclear egress complex (human cytomegalovirus); normalized percent inhibition; 190,000 tested, 0.15% active; inhibition, % (no concentration beside the values);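 active = both replicates at 50% or more, plus weaker picks with an unusually low signal ratio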;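 note: stock transfer was 100 nL into about 20 µL; 0% = negative control wells and 100% = wells with untagged competitor protein; inactives centre near -12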
Sa growth 42C – S. aureus growth inhibition at 42 and 30 °C, primary screen, LtaS inhibitor project, RN4220, two temperatures | OD600, 20 h, 42 °C; stronger effect = lower value | relative growth, % (concentration not given with the values) | 170,000 tested, 0.53% active;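 active = growth at 42 °C up to 50% and 20 or more points under that at 30 °C, or under 10% at both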;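 note: 300 nL library stock went into each well; scaled to the means of positive and negative controls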
Sa growth 42C second temp – recorded beside Sa growth 42C, whose call it bears; relative growth, %; measured here: growth at 30 °C;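 optical density after 20 h as mean of two plates; 100% = untreated growth and lower means inhibition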
* hit, by the source's call; . = no result given; & = joins results of further samples.

#	Compound	GIV Gai3 FP	HCMV NEC inh	Sa growth 42C	Sa growth 42C second temp
1	CCOC(=O)C1=C(CS(=O)(=O)c2ccc(C)cc2)NC(=O)NC1c1ccc(C(C)C)cc1 (configuration not stated)	105	-4	115	87
2	O=C(O)CCc1ccc(-c2ccc(F)cc2)n1NC(=O)c1ccco1	108	-25	112	99
3	COc1ccc(C(=O)C(C)Sc2nnc(-c3cccc(C)c3)n2Cc2ccco2)c(OC)c1 (configuration not stated)	.	-7	60	73
4	CCOc1ccc(NS(=O)(=O)c2cnc[nH]2)cc1	98	2	99	96
5	CCc1noc(-c2ccc(NC(=O)C3CC(=O)N(C(C)C)C3)cc2)n1 (configuration not stated)	109	-21	.	.
6	CC1CCN(Cc2c(NC(=O)c3ccco3)sc3c2CCCC3)CC1	104	-28	.	.
7	O=C(Nc1ccccc1)c1cccc2c(=O)c3c([nH]c12)CCCC3	94	-25	105	84
8	Cc1sc(-c2noc(C3CCC3)n2)cc1S(=O)(=O)N1CCC(C(=O)N2CCCCC2)CC1	109	1	.	.
9	CCC(=O)N1c2ccccc2CC1C(=O)NCCc1ccc(OC)c(OC)c1 (configuration not stated)	98	.	79	93
10	FC(F)(F)c1cc(Br)ccc1N=Cc1ccccc1	111	-14	28	17
11	CCC(NC(=O)c1ccccc1NC(=O)c1ccco1)C(=O)NC1CCCCC1 (configuration not stated)	104	-27	119	96
12	Cc1c(CCC(=O)NCc2ccccc2)c(=O)oc2cc(O)ccc12	108	.	112	92
13	CCC(=O)Nc1ccc2c(c1)NC(=O)C(C)O2 (configuration not stated)	102	-3	.	.
14	N#Cc1cnc2c(-c3ccccc3)c(COc3ccccc3)nn2c1N	105	.	126	91
15	CCCCOc1ccc(C(=O)Nc2cccc(-c3nc4cccnc4s3)c2)cc1	101	0	106	93
16	CC(C)CNC(=O)C(C)Oc1ccccc1 (configuration not stated)	98	2	105	98
17	CC(C)(C)c1ccc(C(=O)Nc2c(-c3ccccc3)nc3sccn23)cc1	105	-4	.	.
18	O=C(CN1CCCCCC1)Nc1nncs1	103	-15	103	100
19	Cc1nn(CC(=O)N2CCN(c3cccc(Cl)c3)CC2)c(=O)c2c1sc1ccccc12	101	-19	113	96
20	CCOc1ccc(C(=O)Nc2cc(C)nn2-c2nc3ccccc3n2Cc2ccc(C#N)cc2)cc1	.	-6	83	92
21	Cc1ccc(CN2CCN(C3CCN(S(=O)(=O)c4ccc(F)cc4)CC3)C(=O)C2=O)cc1	101	19	.	.
22	Cc1cc(C)nc(NS(=O)(=O)c2ccc(NC(=O)c3cc4ccccc4oc3=O)cc2)n1	103	-37	.	.
23	CC1C/C(=C/c2ccsc2)C(=O)/C(=C/c2ccsc2)C1 (configuration not stated)	104	-4	71	69
24	CCN(C(=O)c1c(Oc2ccc(F)cc2)nc(C)c(Cl)c1C)c1ccccc1	.	0	90	81
25	CCOC(=O)c1scc(-c2ccc(C)cc2)c1S(=O)(=O)Nc1cc(C)ccc1C	102	.	87	96
26	CN(C(=O)C1CCCCN1S(=O)(=O)c1ccccc1)c1ccccc1 (configuration not stated)	.	-10	97	94
27	Clc1ccc(-c2cc(-c3nc(-c4ccc(Br)cc4)no3)[nH]n2)cc1	103	-14	.	.
28	N#CC(C#N)=Cc1ccc(-c2cccc(C(F)(F)F)c2)o1	101	0	74	86
29	Cc1cc2c(c(=O)n1CCN1CCOCC1)C(c1cccc(F)c1)C(C#N)=C(N)O2 (configuration not stated)	102	.	110	88
30	COc1ccc(OC)c(CCNC(=O)c2cnn(-c3ccc(C)cc3C)c2C2CCN(C(=O)OC(C)(C)C)CC2)c1	99	.	75	82
31	Cc1cc(Br)ccc1NC(=O)Cn1cnc2sc(C)c(S(=O)(=O)N3CCN(C)CC3)c2c1=O	104	36	103	104
32	Cc1ccc(-c2onc(C)c2C)cc1S(=O)(=O)N1CCCCC1	102	.	70	59
33	O=C(Cc1csc(NC(=O)Nc2ccccc2)n1)Nc1cc(F)ccc1F	112	-12	.	.
34	COc1ccc(C2CC(=O)N(c3ccc(C)cc3C)C(=O)C2)cc1	99	-41	.	.
35	COc1cccc(CNC(=O)CCn2c(=O)c3cccn3c3cccnc32)c1	103	.	93	82
36	COc1cc2c(cc1OC)C(c1ccccc1)CC(=O)N2 (configuration not stated)	107&99	6	84	91
37	CN1CCN(C(=O)C(F)(F)C2(F)OC(F)(F)C(F)(F)C2(F)F)CC1 (configuration not stated)	98	10	97	83
38	COC(=O)c1ccc2c(=O)[nH]c(COC(=O)c3sc4nc5n(c(=O)c4c3C)CCC5)nc2c1	.	-30	81	51
39	CSc1cccc(NC(=S)NC(C)(C)C)c1	109	-17	86	90
40	Cn1c(=O)oc2cc(NC(=O)C3CC3)ccc21	96	-3	.	.
41	O=C1CCCN1CCC1CCN(C(=O)Nc2ccccc2)CC1	106	-14	99	98
42	O=C(C1CCN(S(=O)(=O)Cc2ccc(F)cc2)CC1)N1CCOCC1	108	-18	.	.
43	COc1ccc(-c2nc3c(c(SC)n2)Cc2c(CO)cnc(C)c2O3)cc1	107	.	119	83
44	COc1ccc(-c2cc3nc(C)c(CCC(=O)NC(C)c4ccccc4)c(C)n3n2)c(OC)c1 (configuration not stated)	104	-36	101	91
45	COC(=O)C1=C(C)NC2=C(C(=O)CC(C)(C)C2)C1c1cnc[nH]1 (configuration not stated)	101	-16	86	86
46	COc1ccc2cc3c(nc2c1)N(C(=O)C(C)C)CC3	104	-17	.	.
47	CCOc1ccc(C2c3c(oc4ccc(C)cc4c3=O)C(=O)N2CCN(CC)CC)cc1OC (configuration not stated)	106	-44	107	88
48	Cc1nn2c3c(cnc2c1-c1ccc(F)cc1)C(=O)CC(c1ccc(F)cc1)C3 (configuration not stated)	104	16	.	.
49	CC(=O)N1CCN(CCN2C(=O)C3C4c5ccccc5C(c5ccccc54)C3C2=O)CC1 (configuration not stated)	104	-8	102	81
50	CCOC(=O)c1c(C)[nH]c(C)c1S(=O)(=O)N1CCCC(C(=O)N2CCN(c3ccc(Cl)cc3)CC2)C1 (configuration not stated)	102	.	120	73
51	COc1ccc(S(=O)(=O)N(CC(=O)Nc2ccc(Br)cc2)Cc2ccccc2)cc1	101	.	108	94
52	O=C(c1c(Cl)cccc1Cl)N1CCN(c2cccc3[nH]ccc23)CC1	104	-9	90	89
53	COC(=O)c1c2c(nc3ccccc13)CCCC2	.	7	94	101
54	O=C(CSc1nc2ccccc2c(=O)n1Cc1ccco1)N(c1ccccc1)c1ccccc1	104	2	112	86
55	O=C(O)c1ccc(-n2c(/C=C\c3ccc(O)cc3)nc3ccccc3c2=O)cc1	130	-110	98	91
56	CCOC(=O)Cc1ccc(NC(=O)N2CCC(CN3CCC(C)CC3)CC2)cc1	106	.	99	93
57	COc1ccccc1OCCn1c(C2CC(=O)N(c3cccc(SC)c3)C2)nc2ccccc21 (configuration not stated)	102	7	98	101
58	O=C(NCCc1ccccc1)c1ccc2c(c1)N(Cc1c(F)cccc1Cl)C(=O)CS2	106	1	94	104
59	CC(Cn1c(C(C)C)nc2ccccc21)C(=O)O (configuration not stated)	.	4	91	92
60	CSC(=CC(=O)C(C)(C)C)SC	109	-20	99	92

Following part.
#	Compound	GIV Gai3 FP	HCMV NEC inh	Sa growth 42C	Sa growth 42C second temp
61	Cc1oc2c(c1C(=O)NCc1ccccc1)C(=O)c1ccccc1C2=O	99	.	20	12
62	CCc1ccc(S(=O)(=O)c2c(C(=O)c3ccccc3)cnc3cc4c(cc23)OCCO4)cc1	103	.	102	88
63	Cc1ccc(C)c(S(=O)(=O)Nc2cc3c(C(=O)OC(C)C)c(C)oc3c3ccccc23)c1	112	-4	.	.
64	COc1ccccc1OCC(=O)Nc1cccc(C)n1	100	-3	122	84
65	CC1CCCCN1C(=O)CCS(=O)(=O)c1cccc2nonc12 (configuration not stated)	95	.	97	84
66	CC(C)Cn1c(=O)c2sccc2n2c(CCC(=O)NCCc3c[nH]c4ccccc34)nnc12	99	-5	.	.
67	CCc1ccc(OCc2nnc(SC(C)C(=O)OC)n2C)cc1 (configuration not stated)	101	-16	102	90
68	O=S1(=O)CCC(NC(=S)N2CCOCC2)C1 (configuration not stated)	103	-16	93	88
69	Cc1ccccc1-c1nc(NC(=O)CSc2ncnc3sc4c(c23)CCC(C)C4)ns1 (configuration not stated)	100	.	91	92
70	Cc1ccn2c(NC(=O)c3cccc(Br)c3)c(-c3ccccc3)nc2c1	99	-29	.	.
71	COc1ccc(CNC(=O)c2cc3cccc4c3n2CC(C)S4)cc1 (configuration not stated)	109	.	105	103
72	Cc1ccc(C(=O)CC(C(=O)O)n2ccc(C)n2)cc1 (configuration not stated)	101	-11	105	90
73	Cc1ccc(Cl)cc1NC(=O)C1CCCN(c2cnccn2)C1 (configuration not stated)	95	-32	96	85
74	O=S(=O)(c1ccccc1)c1nnn2c1nc(NCc1ccc(F)cc1)c1sccc12	100	.	115	88
75	Cn1c(N)c(C(=O)CN2CCc3ccccc3C2)c(=O)n(C)c1=O	.	-9	109	112
76	COc1ccccc1CNC(=O)c1nc[nH]c1C(=O)NCc1cccnc1	101	-19	.	.
77	O=C(CCCSC1=NC(c2ccco2)CC(C(F)(F)F)N1)Nc1ccc(Cl)c(Cl)c1 (configuration not stated)	108	-25	83	91
78	CC1(C)Cc2c(sc3nc(SCC(=O)Nc4ccccc4)nc(N)c23)CO1	97	2	84	82
79	COc1ccc(CNC(=O)CCc2c(C)nn(-c3ccc(N4CCCC4)nn3)c2C)cc1	100	.	94	87
80	CCOC(=O)c1ccc(CN(Cc2ccc(C)cc2)S(=O)(=O)c2ccc(NC(C)=O)cc2)cc1	101	.	138	67
81	O=C(NCc1ccc(Cl)cc1)c1cnc2sc(N3CCCC3)nn2c1=O	103	.	93	86
82	CCn1c(NC(C)=O)nc2ccccc21	107	-10	111	69
83	O=C(NCCc1ccc(Cl)cc1)C1CCC(=O)N1C1CCCCC1 (configuration not stated)	104	9	111	101
84	CCC(C)NC(=O)c1ccc(CN2C(=O)CSc3ncccc32)cc1 (configuration not stated)	106	-3	.	.
85	CC(NC(=O)c1ccccc1)c1nnc(SCc2nc3ccccc3c(=O)[nH]2)n1C (configuration not stated)	102	-4	109	103
86	COc1ccc(S(=O)(=O)N2Cc3ccccc3CC2C(=O)N2CCCCC2)cc1 (configuration not stated)	102	.	99	85
87	COc1ccc2c(c1)c(NC(C)=O)c(C(=O)O)n2C	106	-13	109	92

Of the compounds above, 13 have fluorine:
#	Compound	GIV Gai3 FP	HCMV NEC inh	Sa growth 42C	Sa growth 42C second temp
2	O=C(O)CCc1ccc(-c2ccc(F)cc2)n1NC(=O)c1ccco1	108	-25	112	99
10	FC(F)(F)c1cc(Br)ccc1N=Cc1ccccc1	111	-14	28	17
21	Cc1ccc(CN2CCN(C3CCN(S(=O)(=O)c4ccc(F)cc4)CC3)C(=O)C2=O)cc1	101	19	.	.
24	CCN(C(=O)c1c(Oc2ccc(F)cc2)nc(C)c(Cl)c1C)c1ccccc1	.	0	90	81
28	N#CC(C#N)=Cc1ccc(-c2cccc(C(F)(F)F)c2)o1	101	0	74	86
29	Cc1cc2c(c(=O)n1CCN1CCOCC1)C(c1cccc(F)c1)C(C#N)=C(N)O2 (configuration not stated)	102	.	110	88
33	O=C(Cc1csc(NC(=O)Nc2ccccc2)n1)Nc1cc(F)ccc1F	112	-12	.	.
37	CN1CCN(C(=O)C(F)(F)C2(F)OC(F)(F)C(F)(F)C2(F)F)CC1 (configuration not stated)	98	10	97	83
42	O=C(C1CCN(S(=O)(=O)Cc2ccc(F)cc2)CC1)N1CCOCC1	108	-18	.	.
48	Cc1nn2c3c(cnc2c1-c1ccc(F)cc1)C(=O)CC(c1ccc(F)cc1)C3 (configuration not stated)	104	16	.	.
58	O=C(NCCc1ccccc1)c1ccc2c(c1)N(Cc1c(F)cccc1Cl)C(=O)CS2	106	1	94	104
74	O=S(=O)(c1ccccc1)c1nnn2c1nc(NCc1ccc(F)cc1)c1sccc12	100	.	115	88
77	O=C(CCCSC1=NC(c2ccco2)CC(C(F)(F)F)N1)Nc1ccc(Cl)c(Cl)c1 (configuration not stated)	108	-25	83	91

Among those listed so far, 4 have a cyano group:
#	Compound	GIV Gai3 FP	HCMV NEC inh	Sa growth 42C	Sa growth 42C second temp
14	N#Cc1cnc2c(-c3ccccc3)c(COc3ccccc3)nn2c1N	105	.	126	91
20	CCOc1ccc(C(=O)Nc2cc(C)nn2-c2nc3ccccc3n2Cc2ccc(C#N)cc2)cc1	.	-6	83	92
28	N#CC(C#N)=Cc1ccc(-c2cccc(C(F)(F)F)c2)o1	101	0	74	86
29	Cc1cc2c(c(=O)n1CCN1CCOCC1)C(c1cccc(F)c1)C(C#N)=C(N)O2 (configuration not stated)	102	.	110	88

Compound activity from PubChem.
